Rango complex inh: qHTS Assay for Inhibitors of Rango (Ran-regulated importin-beta cargo) - Importin beta complex formation. Rango CFP/YFP FRET sensor + importin beta, 45 min. AID 540263, 2011. Potency, µM (highest dose often 92.2 µM), for the others: at the top dose inhibition of complex formation. Importin subunit beta-1 (Homo sapiens), Q14974. 0.031% of 340,000 active; active = rising FRET ratio curve, often small or poorly fitted; inconclusive = mostly compound fluorescence or quenching in the first reads; inactive = flat curves in all reads;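 further: potency means the concentration at half of the fitted maximal effect; 0% = DMSO wells and 100% = buffer wells lacking importin beta; nearly all actives have a fitted effect of over 15% in size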
Target sequence (Q14974 whole entry, looked up): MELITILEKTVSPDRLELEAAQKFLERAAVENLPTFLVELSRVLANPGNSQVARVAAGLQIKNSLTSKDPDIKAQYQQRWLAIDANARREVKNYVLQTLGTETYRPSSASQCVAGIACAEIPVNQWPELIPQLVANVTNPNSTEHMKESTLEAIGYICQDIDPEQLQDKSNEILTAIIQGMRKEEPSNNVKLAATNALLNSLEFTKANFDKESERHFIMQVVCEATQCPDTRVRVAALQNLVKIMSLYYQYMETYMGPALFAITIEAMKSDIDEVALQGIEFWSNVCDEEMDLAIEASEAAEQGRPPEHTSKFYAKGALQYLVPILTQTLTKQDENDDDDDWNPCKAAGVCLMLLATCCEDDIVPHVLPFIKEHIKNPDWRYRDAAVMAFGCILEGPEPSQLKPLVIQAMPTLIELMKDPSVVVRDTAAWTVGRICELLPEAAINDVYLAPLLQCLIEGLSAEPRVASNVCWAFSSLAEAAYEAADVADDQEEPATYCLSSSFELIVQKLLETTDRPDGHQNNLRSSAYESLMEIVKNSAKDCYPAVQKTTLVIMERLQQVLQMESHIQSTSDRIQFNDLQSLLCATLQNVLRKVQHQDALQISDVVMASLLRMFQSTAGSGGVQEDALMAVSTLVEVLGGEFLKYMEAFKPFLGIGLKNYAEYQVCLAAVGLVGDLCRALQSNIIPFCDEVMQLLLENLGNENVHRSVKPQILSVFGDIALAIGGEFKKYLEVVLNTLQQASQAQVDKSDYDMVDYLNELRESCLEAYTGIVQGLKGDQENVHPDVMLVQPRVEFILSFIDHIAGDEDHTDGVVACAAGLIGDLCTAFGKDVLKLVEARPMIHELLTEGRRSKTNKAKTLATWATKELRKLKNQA
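FRET biosensor Rango (snurportin 1 IBB between N-terminal EYFP and C-terminal Cerulean), 50 nM in PBS/1 mM DTT/0.02% Tween-20/0.1% BSA, preincubated 5 min RT with compound; 0.125 microM importin beta added, 45 min RT, CFP/YFP FRET ratio read.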
miR-21 reporter: qHTS Assay for Modulators of miRNAs and/orActivators of miR-21; 340,000 tested, under 10 active; AID 2288, 2010; Potency, µM (titrated, usually from 38.3 µM), without a hit: at the top dose reporter change, positive = more light; HeLa miR-21 FLuc reporter, luciferase, 48 h; active = well fitted rising curve with a large enough effect; inconclusive = small, poorly fitted or top-dose-only effect; inactive = no such curve, though single readings can be large or run the other way;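 further: % of control where 0% means no effect; miR-21 action dims this reporter so a rising signal means less miR-21 action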
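HeLa cells stably expressing CMV-driven firefly luciferase with a downstream miR-21 binding sequence, endogenously expressing miR-21, were treated with titrations (up to about 40uM final) for 48 hours at 37 degree Celsius. Luciferase luminescence was read after lysis.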
Rango dissoc inh: qHTS Assay for Inhibitors of RanGTP induced Rango (Ran-regulated importin-beta cargo) - Importin beta complex dissociation. AID 540253, 2011. Snurportin-1 (Homo sapiens) + GTP-binding nuclear protein Ran (Homo sapiens) + Importin …. Biochemical FRET Rango-importin beta, RanGTP-induced dissociation. 0.071% of 340,000 active. Potency, µM (titrated, usually from 46.1 µM), for inactives: at the top dose activity change, negative = inhibition; active means falling FRET ratio curve, often poorly fitted, with flat reads before Ran was added; inconclusive means other falling curves, or compound fluorescence or quenching; inactive means flat or rising ratio curve;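 further: potency means the concentration at half of the fitted maximal effect; % of control where 0% means no effect; nearly all actives have a fitted effect of over 45% in size; -100% = wells without RanGTP and RCC1; the record marks most hits as doubtful in a second field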
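Two FRET readings bracket the reaction: one 5 min after compound meets Rango–importin beta, another 45 min after RanGTP-RCC1 (0.6 uM Ran, 0.2 uM RCC1, 2 mM GTP) is added. Only the second defines inhibition.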
GLA inh pH 4.5: qHTS Assay for Inhibitors of Human alpha-Galactosidase at pH 4.5; purified enzyme, 4-MU-alpha-Gal fluorescence, pH 4.5; AID 1467, 2008; activity change, negative = inhibition, % at 105 µM; 230,000 tested, under 10 active; Alpha-galactosidase A (Homo sapiens), P06280; inconclusive = small, poorly fitted or top-dose-only inhibition, or a rising curve; inactive = flat fitted curve, though single readings scatter; no compound was filed as active;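 further: 0% = full activity with enzyme and -100% = basal without enzyme; dose as in the result columns while the protocol names 77 µM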
Active calls of the source: *; ? = inconclusive; nt = no result given; & = joins results of further samples. Only part of the results is shown. The share of hits here may be higher or lower than overall.

SMILES | Rango complex inh | miR-21 reporter | Rango dissoc inh | GLA inh pH 4.5
Cc1ccccc1-c1cc(C(=O)O)nn1CC1CC(c2cccc([N+](=O)[O-])c2)=NO1 (configuration not stated) | 2.7% | nt | -1% | nt
O=C(/C=C/c1ccc(F)cc1)NC(=S)NNC(=O)[C@H]1C[C@@H]1c1ccccc1 | 7.0% | -28% | -19% | nt
Cn1cc(-c2ccccc2)cc(C#N)c1=O | -0.7% | -5% | 5% | 21
NC(=O)c1c(-c2ccccc2)oc2ccc(O)cc12 | -4.0% | -20% | -5% | 1
COc1cccc2cc(C(C)=O)c(=O)oc12 | -1.1% | -7% | 0% | 2
COc1ccccc1S(=O)(=O)Cc1ccc(C(=O)N2CCN(c3ccccn3)CC2)o1 | -0.4% | 8% | 5% | 9
Clc1ccc(-c2nc3cc(CN4CCCCC4)ccc3o2)cc1 | 2.1% | -36% | -6% | nt
COc1ccc(Cl)cc1C(=O)NCc1cn(C)nc1C | -0.1% | -3% | -7% | 2
CCn1cc(C(=O)Nc2ccc(NC(=O)c3ccco3)cc2)c(=O)c2ccc(C)nc21 | -2.4% | 0% | 16% | 11
COc1ccc(C(C)=O)cc1COc1ccc(Cl)c(C)c1 | 0.5% | -13% | 0% | -16
COc1ccc(CCN(C)C2CCCN(C(=O)Cn3cccn3)C2)cc1OC (configuration not stated) | 0.7% | 3% | 4% | nt
COc1ccccc1OC(=O)Cc1cccc2ccccc12 | -0.6% | -1% | ? | nt
COc1ccc2c(c1)CCN1C2CCN2C(=O)CCC21 (configuration not stated) | 2.8% | -3% | 7% | 1
COc1ccc(N(CC(=O)NC2CC3CCC2C3)S(=O)(=O)c2ccc(C)cc2)cc1 (configuration not stated) | -3.2% | 1% | 1% | nt
O=C(NCC(NS(=O)(=O)OCC(Cl)(Cl)Cl)c1ccccc1)C(F)(F)F (configuration not stated) | 1.6% | 6% | 0% | nt
CC(C)CC(c1nnnn1C(C)(C)C)N1CCN(C2CCCC2)CC1 (configuration not stated) | 0.6% | -2% | -11% | 0
COC(=O)c1cc(OC)c(OC)cc1NC(=O)CCCCCN1C(=O)CCC1=O | -1.5% | -6% | 9% | -6
O=C(Nc1cccc(F)c1)/C(=C\c1cccnc1)NC(=O)c1ccco1 | 1.7% | -4% | -5% | 2
Cc1c(NC(=O)C(C)OC(=O)c2ccc([N+](=O)[O-])cc2Cl)c(=O)n(-c2ccccc2)n1C (configuration not stated) | -0.7% | nt | -4% | nt
O=C1C=CC(=O)N1c1cccc(-c2ccccc2)c1 | 6.0% | 14% | -8% | -13
O=C(NC1CCCCCC1)c1cc2c(=O)n3ccccc3nc2s1 | ? | -67% | ? | nt
Clc1nccc(N2CCN(c3ccccc3Cl)CC2)n1 | -0.6% | nt | -10% | nt
Cc1nc2c(-c3ccc(F)cc3)cnn2c(N)c1-c1ccccc1 | 4.9% | 12% | -6% | nt
CCc1nc2cccnc2n1-c1ccc(CC(=O)NCCOC)cc1 | -4.1% | -1% | -13% | nt
CSc1ccc(CC(=O)N2CCC(n3nccc3NC(=O)C3CC3)CC2)cc1 | -3.6% | -49% | 9% | nt

Four of the compounds above, in markdown:
| SMILES | Rango complex inh | miR-21 reporter | Rango dissoc inh | GLA inh pH 4.5 |
| --- | --- | --- | --- | --- |
| NC(=O)c1c(-c2ccccc2)oc2ccc(O)cc12 | -4.0% | -20% | -5% | 1 |
| COc1cccc2cc(C(C)=O)c(=O)oc12 | -1.1% | -7% | 0% | 2 |
| COc1ccccc1S(=O)(=O)Cc1ccc(C(=O)N2CCN(c3ccccn3)CC2)o1 | -0.4% | 8% | 5% | 9 |
| Clc1ccc(-c2nc3cc(CN4CCCCC4)ccc3o2)cc1 | 2.1% | -36% | -6% | nt |

The list continues:
SMILES | Rango complex inh | miR-21 reporter | Rango dissoc inh | GLA inh pH 4.5
O=C(c1ccc(-c2ccccc2)cc1)N1CCN(c2ncccn2)CC1 | 6.1% | -5% | 10% | -23
O=C(NC1(C(F)(F)F)C(=O)Nc2c1c(=O)[nH]c(=O)n2-c1ccccc1)c1cccnc1 (configuration not stated) | 1.6% | -10% | -9% | -16
O=C(OCc1cc2ccccc2[nH]c1=O)c1ccc([N+](=O)[O-])cc1 | 2.2% | -6% | 4% | 2
COc1ccc(OCC(=O)NNC(=O)c2c(-c3ccccc3Cl)noc2C)cc1 | 2.2% | -3% | 2% | -1
C=CCOC(=O)C1=C[C@@H](c2ccc3c(c2)OCO3)C[C@@H](OCCCCO)O1 | 3.1% | nt | 3% | nt
CC1=C(C(=O)OCC2CCCO2)C(c2ccc(F)cc2)NC(=O)N1 (configuration not stated) | -1.5% | 0% | 0% | 3
CC1Oc2ccccc2C(=O)N(CC(=O)c2ccc3c(c2)OCCO3)C1=O (configuration not stated) | -1.0% | 0% | -11% | nt
CCOC(=O)c1cc2c(=O)n3ccccc3nc2n(CC(C)C)c1=NC(=O)c1c(-c2c(F)cccc2Cl)noc1C | ? | 7%&-10% | ? | 2
O=C(O)CCC1(C(=O)O)CCC(=O)c2ccccc21 (configuration not stated) | 2.5% | nt | 9% | nt
COc1cccc(NC(=O)c2ccccc2-c2nc(-c3ccc(F)cc3)no2)c1 | -0.9% | 7% | 1% | -18
COc1ccc(C(=O)/C=C/Nc2cccc(O)c2)cc1 | 0.7% | -20% | 14% | -1
O=C(O)COc1ccccc1-c1nc(-c2ccccc2)c(-c2ccccc2)[nH]1 | 11% | 7% | 23% | nt
O=C(c1ccco1)N1CCN(C(c2ccccn2)c2nnnn2C2CCCC2)CC1 (configuration not stated) | 2.5% | -76% | -6% | 5
Cn1cccc1C(=O)OCc1cc(-c2ccco2)on1 | 1.5% | nt | 13% | nt
c1ccc(CN2CCC3CC2c2cc(N4CCOCC4)ccc23)cc1 (configuration not stated) | -2.4% | nt | 1% | nt
Cc1cc(C)c(-n2c(SCCS(=O)(=O)c3ccc(F)cc3)n[nH]c2=O)c(C)c1 | -0.4% | ? | 2% | 5
CCc1ccc(N2CC(O)(c3cccs3)[N+]3=C2SCCC3)cc1 (configuration not stated) | 2.5% | 5% | -7% | 0
COC(=O)C1=C(C)N(Cc2ccccc2)C(=NCCN2CCOCC2)N[C@H]1CCc1ccccc1 | ? | 3% | 4% | nt
COc1ccc(-c2noc(-c3ccccc3C(=O)Nc3cccnc3)n2)cc1 | -0.1% | -4% | -13% | -3
O=C(c1cnsn1)N1CCC(CO)(Cc2ccc(Cl)cc2)CC1 | 2.1% | -9% | 0% | -1
CC(C)CN(C(=O)CN(C)C(=O)Cc1ccccc1Cl)c1c(N)n(CC(C)C)c(=O)[nH]c1=O | -3.6% | -5% | -9% | nt
Cn1c(=O)oc2cc(S(=O)(=O)NCCC(=O)NC3CCCc4ccccc43)ccc21 (configuration not stated) | 1.1% | 2% | 1% | -4
CCOC(=O)C1=C(c2ccccc2)N=c2s/c(=C\c3cccc(O)c3)c(=O)n2C1c1cccs1 (configuration not stated) | ? | ? | -25% | nt
Cc1ccc(OCCC(=O)OCC(=O)Nc2ccc(Cl)cn2)cc1 | -1.9% | -1% | -4% | 0
COc1ccc(-c2csc(NC(=O)COC(=O)C3=COCCO3)n2)cc1 | 6.9% | -33% | 3% | 3
(further entries)
SMILES | Rango complex inh | miR-21 reporter | Rango dissoc inh | GLA inh pH 4.5
CCn1c(Cc2ccccc2)nnc1SCC(=O)Nc1nc(C)c(C)s1 | ? | -1% | 0% | -2
CCc1ccccc1NC(=O)N[C@H](C(=O)O)C(C)C | ? | 0% | -9% | 3
COc1ccc(-n2nnnc2SCC(=O)N(C)C2CCS(=O)(=O)C2)cc1 (configuration not stated) | -2.0% | nt | -8% | nt
Brc1c(CSc2nc3ccccc3s2)nc2ncccn12 | 3.9% | -84% | 37% | 4
COC(=O)Cc1c(O)ccn(CCc2ccccc2)c1=O | 3.3% | -2% | 0% | 6
CN1CCN(CC(=O)Nc2sc3c(c2C#N)CCC(C(C)(C)C)C3)CC1 (configuration not stated) | nt | -14% | nt | -10
O=C(CCNS(=O)(=O)c1ccccc1)NCCCSc1ccccc1 | 3.4% | 7% | 17% | nt
CCCC(=O)Nc1cccc(C(=O)Nc2nccs2)c1 | -6.8% | -7% | 0% | -20
COc1ccc(Nc2nc(-c3cccnc3)nc3ccccc23)cn1 | ? | 20% | -20% | nt
c1csc(-c2nc3nc4ccccc4nc3n2Cc2ccc3c(c2)OCO3)c1 | ? | -18% | ? | -6
Cc1c(CCC(=O)N2CCC[C@H]2C(=O)O)c(=O)oc2cc3oc4c(c3cc12)CCCC4 | -0.2% | 15% | 10% | nt
CCS(=O)(=O)NCC(c1ccco1)N1CCN(c2ccccc2F)CC1 (configuration not stated) | -2.7% | 0% | -15% | -4
Cc1ccc(Cl)cc1-n1ncc2c(NNC(=O)c3ccco3)ncnc21 | -1.7% | -12% | -15% | -7
Cc1cccc(OC(C)C(=O)N2CCCN(C)CC2)c1C (configuration not stated) | 0.6% | -4% | -2% | nt
CCN1C(=O)/C(=C/c2cn(C)nc2C)SC1=S | 5.7% | -2% | 19% | -5
O=C(NC1CCS(=O)(=O)C1)/C(=C\c1ccccc1)NC(=O)c1ccccc1 (configuration not stated) | ? | -2% | -10% | -4
Cc1ccc(S(=O)(=O)NC(C)(C)CSc2nnc(Nc3ccccc3)s2)cc1 | 1.7% | 30% | 2% | -8
CC(=O)Nc1ccc(S(=O)(=O)Nc2nc(CN3CCOCC3)nc3sc4c(c23)CCCC4)cc1 | -1.0% | 0% | -8% | 14
CN(CC(=O)Nc1ccccc1C(F)(F)F)C(=O)c1ccc(-c2ccc(Cl)cc2)o1 | -1.8% | nt | 8% | nt
COc1ccc(S(=O)(=O)N(C)C)cc1NCC(=O)Nc1ccc(F)cc1F | -0.9% | -1% | 16% | -1
COC(=O)c1ccc(COC(=O)c2cccn2C)o1 | -5.1% | -59% | 3% | nt
COCCCNC(=O)C1CCC(CNS(=O)(=O)c2ccc3c(c2)N(C(C)=O)CCO3)CC1 (configuration not stated) | -0.9% | 2% | 8% | nt
CCOC(=O)NCCOC(=O)Nc1ccc(Cl)cc1 | 5.7% | -10% | -9% | -3
Cc1ccccc1S(=O)(=O)Cc1ccc(C(=O)NCCN(CC(C)C)CC(C)C)o1 | 1.5% | 1% | 48% | nt
O=c1c(C(c2ccccc2)c2c(O)nc3n(c2=O)CCCS3)c(O)nc2n1CCCS2 | -4.3% | 1% | -2% | -8

Complete entries, looked up by structure:
CCn1c(Cc2ccccc2)nnc1SCC(=O)Nc1nc(C)c(C)s1 reads Rango complex inh = ?; miR-21 reporter = -1%; Rango dissoc inh = 0%; GLA inh pH 4.5 = -2
CCCC(=O)Nc1cccc(C(=O)Nc2nccs2)c1 reads Rango complex inh = -6.8%; miR-21 reporter = -7%; Rango dissoc inh = 0%; GLA inh pH 4.5 = -20

(listing goes on)
SMILES | Rango complex inh | miR-21 reporter | Rango dissoc inh | GLA inh pH 4.5
CC1CCCN(CCCOc2ccc(Cl)cc2Br)C1 (configuration not stated) | 1.9% | -37% | 0% | 1
CCn1nc(C)cc1C(=O)N1CCc2c([nH]c3ccccc23)C1c1cc(F)ccc1F (configuration not stated) | 1.9% | -50% | -3% | -8
O=Cc1c[nH]c2ccc(C(=O)c3ccccc3)cc12 | 3.7% | -21% | -3% | nt
CSCCC(NC(=O)c1ccc(Cl)cc1Cl)C(=O)NCc1ccccn1 (configuration not stated) | 5.0% | 0% | -28% | nt
S=C(c1ccccc1)N1CCSCC1 | -1.3% | -6% | ? | nt
NC(=O)CSc1nnc(-c2ccccn2)n1Cc1ccco1 | -3.6% | -1% | 8% | 0
CCOC(=O)CN1C(=O)N(c2ccccc2OC)S(=O)(=O)c2ccccc21 | -2.5% | -4% | 18% | nt

Screening results as filed in PubChem.
